# Screening results: PubChem BioAssay, National Center for Advancing Translational Sciences (NCATS)
# NPR1 antag = antagonists of human natriuretic peptide receptor Npr1. HEK293 hNpr1 GloSensor cGMP, ANP-stimulated luminescence. Potency, µM (titrated, usually from 46.3 µM), without a hit: at the highest dose activity change, negative = inhibition, usual class: inhibitors. 76,000 tested, 1.6% active; active = well fitted inhibition curve with a large enough effect; inconclusive = small, poorly fitted or top-dose-only effect; inactive = no such curve, though single readings can be large or run the other way;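 note: nearly all actives have a fitted effect of over 60% in size; nearly all hits also lower the signal before the agonist is added; a reference antagonist and vehicle were the controls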
# Target sequence (P16066 whole entry, looked up): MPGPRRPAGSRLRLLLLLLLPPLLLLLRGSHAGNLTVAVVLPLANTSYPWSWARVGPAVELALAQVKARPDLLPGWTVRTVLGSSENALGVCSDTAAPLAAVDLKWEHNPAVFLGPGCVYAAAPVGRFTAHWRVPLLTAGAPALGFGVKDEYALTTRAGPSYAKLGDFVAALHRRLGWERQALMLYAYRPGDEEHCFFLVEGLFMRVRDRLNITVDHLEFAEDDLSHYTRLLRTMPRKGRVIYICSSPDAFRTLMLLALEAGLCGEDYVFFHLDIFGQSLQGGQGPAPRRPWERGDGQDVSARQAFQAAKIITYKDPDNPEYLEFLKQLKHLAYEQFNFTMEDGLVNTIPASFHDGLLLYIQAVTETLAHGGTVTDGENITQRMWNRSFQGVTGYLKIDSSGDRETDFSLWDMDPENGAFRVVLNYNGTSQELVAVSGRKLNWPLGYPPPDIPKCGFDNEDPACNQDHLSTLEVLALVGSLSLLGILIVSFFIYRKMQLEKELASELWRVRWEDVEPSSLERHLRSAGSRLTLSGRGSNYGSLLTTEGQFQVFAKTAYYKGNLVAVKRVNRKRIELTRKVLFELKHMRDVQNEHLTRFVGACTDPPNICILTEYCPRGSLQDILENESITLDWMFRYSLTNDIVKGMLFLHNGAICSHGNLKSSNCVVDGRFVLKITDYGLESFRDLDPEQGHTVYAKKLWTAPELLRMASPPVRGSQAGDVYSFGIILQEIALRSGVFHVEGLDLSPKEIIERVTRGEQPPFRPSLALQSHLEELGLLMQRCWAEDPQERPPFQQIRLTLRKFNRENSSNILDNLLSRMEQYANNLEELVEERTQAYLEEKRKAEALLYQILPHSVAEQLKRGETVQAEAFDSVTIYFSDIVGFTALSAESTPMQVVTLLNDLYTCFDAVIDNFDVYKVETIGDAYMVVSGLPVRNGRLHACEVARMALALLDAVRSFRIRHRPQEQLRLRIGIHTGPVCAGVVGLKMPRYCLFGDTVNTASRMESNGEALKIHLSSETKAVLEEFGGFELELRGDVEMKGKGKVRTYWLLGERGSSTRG
#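 Compound pre-incubated 30 min at room temperature on GloSensor-loaded HEK293 cells stably carrying hNpr1 and the pGS-40F cGMP biosensor. Stimulation uses hNppA at 0.1 nM final; luminescence is taken at baseline and 20 min post-agonist.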
# The depositor's hits bear a star; u = inconclusive; [ ] = dose if it differs, or a comment. % is set by controls: 0 for no effect and ±100 for the full control effect; potency is the fitted concentration of half-maximal effect. The list is partial; the hit share may differ from the screen's.
Molecule	NPR1 antag
CN(C)C(=O)c1ccc(OC2CCN(C(=O)c3ccc(C(F)(F)F)cc3)CC2)nc1	1.7%
COc1ccccc1CC(=O)N1CCCc2ncc(C(=O)NCc3ccc(OC)c(OC)c3)cc21	u
Cc1cnc(C(=O)N2CCC3(CC2)CC(N(Cc2ccccc2)C2CC2)CCO3)cn1 (stereo not drawn)	-0.2%
O=C(NC1CCN(Cc2ccccc2)CC1)[C@H]1CN(Cc2ccccc2)C[C@H]1C(=O)O	-2.5%
COc1cccc(CNC(=O)N[C@@H]2CN(c3ncccn3)C[C@H]2CN(C)C)c1	5.5%
CCOC(=O)c1ccc(NC(=O)c2ccc3c(c2)N(C)C2CCCCN2C3=O)cc1 (stereo not drawn)	0.0%
CCOC(=O)c1sc(NC(=O)Cn2nc3c(cc2=O)CCCC3)nc1C	-2.8%
COCCO[C@H]1C(=O)N(C2CCN(C(=O)c3cnc(C)cn3)CC2)[C@H]1c1ccncc1	4.9%
Cc1ccc2c(C(=O)Nc3ccc(N4CCOCC4)cc3)cc(NC(=O)C3CCC3)cc2n1	-10.9%
CNC(=O)N1CCC(C2CCN(C(=O)c3cc(C)n(CCOC)c3C)C2)CC1 (stereo not drawn)	5.7%
COCc1nncn1C1CCN(C(=O)c2ccc(C)c(C)c2)CC1	0.2%
Cc1ccc(CNC(=O)Cn2c(C)cc3nc4n(c(=O)c32)CCCCC4)cc1	-5.6%
CN1CCN(C(=O)CC2=C3CCCCC3NC2=O)CC1 (stereo not drawn)	-0.6%
Cc1noc([C@@H]2CC(F)(F)CN2C(=O)c2ccc(F)cn2)n1	9.4%
CCOc1ccccc1C1NC(=O)N(CC(=O)NC(C)(C)C)C2=C1C(=O)OC2 (stereo not drawn)	1.6%
Cc1cccc(OCC(=O)N[C@@H]2CN(c3ccncn3)C[C@H]2CN(C)C)c1	14.8%
COc1cccc(CCC(=O)N2CCCC(c3[nH]ccc3C(N)=O)C2)c1 (stereo not drawn)	10.3%
Cc1cnc(C(=O)N2CCCC(CCc3cccc(F)c3)C2)cn1 (stereo not drawn)	4.0%
COc1ccc(C(CC(=O)N2CCN(C)CC2)c2ccccc2)cc1 (stereo not drawn)	-12.7%
Cc1nn2c(c1-c1ccccc1C(C)C)N(CCC(C)C)CCC2	2.51µM*
CCNC(=O)C1CCN(C(=O)CC(=O)Nc2ccccc2OCC)C1 (stereo not drawn)	2.4%
O=C(NC[C@H]1OC[C@@H](NC2CCC(F)(F)CC2)[C@@H]1O)c1cccs1	-2.0%[70.6 µM]
COc1ccc(-c2cc3c(ccn3Cc3ccncc3)c(N3CCOCC3)n2)cn1	3.0%[70.6 µM]
CN(C)c1ccc(C(=O)N[C@H]2CO[C@H]3[C@@H]2OC[C@@H]3n2nnnc2Oc2cccc(N(C)C)c2)cc1	11.2µM*
CN(CC(=O)N1CCC(CCOc2ccc(F)cc2)C1)S(=O)(=O)c1ccc2c(c1)oc(=O)n2C (stereo not drawn)	u
COc1cc(F)ccc1-c1ccnc2ncnn12	-1.6%
COCCN1C(=O)[C@H]2CN(Cc3ccc(C)s3)C[C@H]2C1=O	3.6%
CN1CC[C@H]2CN(C(=O)CCCc3ccc(F)cc3)C[C@@]2(C(=O)O)C1	-5.3%
COC[C@H]1C[C@@H](NC(=O)c2cncnc2)[C@H](O)[C@@H]1O	5.8%[70.6 µM]
CC(C)C(=O)N1CCC(N2C(=O)C(O)C23CCCCC3)CC1 (stereo not drawn)	6.5%

# Ordered by value in NPR1 antag (falling): three of the compounds above
Molecule	NPR1 antag
Cc1cnc(C(=O)N2CCCC(CCc3cccc(F)c3)C2)cn1 (stereo not drawn)	4.0%
COCc1nncn1C1CCN(C(=O)c2ccc(C)c(C)c2)CC1	0.2%
CCOC(=O)c1sc(NC(=O)Cn2nc3c(cc2=O)CCCC3)nc1C	-2.8%

# Shown as a hit in NPR1 antag, among the entries above:
Molecule	NPR1 antag
Cc1nn2c(c1-c1ccccc1C(C)C)N(CCC(C)C)CCC2	2.51µM*
CN(C)c1ccc(C(=O)N[C@H]2CO[C@H]3[C@@H]2OC[C@@H]3n2nnnc2Oc2cccc(N(C)C)c2)cc1	11.2µM*

# Remaining list, next part.
Molecule	NPR1 antag
COC(=O)[C@@H]1Cc2ncn(C(C)C)c2CN1C(=O)c1ccc(OC)cc1	0.7%[70.6 µM]
COc1ccc(C(=O)N2Cc3[nH]cnc3C[C@H]2c2nc(-c3ccc(OC(F)(F)F)cc3)no2)cc1	5.4%
O=C(C1CCC1)N1CCC(C(=O)N2CCCC2c2ccco2)CC1 (stereo not drawn)	-3.4%
CCC1(O)CCC12CCN(C(=O)CC1CCCC1)CC2 (stereo not drawn)	-1.3%
Cc1nc(C)c(C(=O)N2CC[C@H]3C(=O)NCCCCCCN(Cc4ccncc4)[C@@H]3C2)s1	3.3%
CCNC(=O)CN1CCC(=O)N(Cc2ccc(F)cc2)C(C(C)C)C1 (stereo not drawn)	4.9%
COCCN1C(=O)c2ccccc2C(C(=O)Nc2nc3ccccc3s2)C12CCCC2 (stereo not drawn)	-2.7%
COCCN1Cc2ccc(NCC(C)C)nc2C(C)(C(=O)Nc2ccc(OC)cc2)C1 (stereo not drawn)	-9.6%[70.6 µM]
CC(=O)NC1(C)CCN(Cc2ccccc2-c2ccc3c(ccn3C)c2)C1 (stereo not drawn)	0.5%[70.6 µM]
CN1CC(C(=O)N2CCCC(c3ccccc3)(c3ccccc3)C2)CC1=O (stereo not drawn)	-0.3%
COc1ccc(Nc2ccc3ncn(-c4ccccc4)c(=O)c3n2)cn1	5.3%[70.6 µM]
O=C(Nc1ccc(F)cc1)N1C[C@@H]2OCC(=O)N(Cc3ccc(OC(F)(F)F)cc3)[C@@H]2C1	1.4%
O=C(O)c1ccc(CN2C[C@@H]3OCC(=O)N(Cc4ccccc4)[C@@H]3C2)cc1	5.9%[70.6 µM]
CCCn1c(C)cnc1CCNC(=O)CCC1CCCC1	3.9%
CC[C@@]1(C(=O)O)C[C@H](C(=O)N(C)CCO)[C@H](c2ccc(F)cc2)N1C	5.3%
Cc1ncccc1OC1(C(=O)N2CCCC2c2nc(C(C)C)no2)CCNCC1 (stereo not drawn)	7.6%
COc1cccc(C(=O)N2CCC3(CC2)OCC(C(=O)N2CCCC2)N3C(=O)c2ccccc2C)c1 (stereo not drawn)	-1.0%
CC(C)c1ccc(CC(=O)N2CCCc3ncc(C(=O)NCCc4ccccn4)cc32)cc1	-14.2%
O=C(NCc1cccnc1)c1nc(-c2cccc(C(F)(F)F)c2)c2ccccn12	-19.4%
Cc1cccc(S(=O)(=O)N2CCC3(C2)C(=O)N(C)c2ccccc23)c1 (stereo not drawn)	-13.6%
COc1ncc(-c2cc(C(=O)NCc3cccnc3)c3c(c2)N(C)CCO3)cn1	-6.1%[70.6 µM]
CC(C)c1nnnn1[C@H]1CO[C@H]2[C@@H]1OC[C@H]2OC(=O)Nc1cccc(C#N)c1	-3.3%[70.6 µM]
COc1ccc(NC(=O)c2cc3n(n2)CC(c2ccc(Br)cc2)OC3)cc1OC (stereo not drawn)	u
COc1ccc(CN2Cc3[nH]nc(-c4cccc(NC(C)=O)c4)c3CC2=O)cc1	-14.7%[70.6 µM]
N#Cc1ccc(C(=O)N2CCOC[C@H](Oc3cnccn3)C2)cc1	10.6%[70.6 µM]
Cc1nn2c(c1-c1ccccc1[S+](C)(=O)[O-])N(Cc1ccccc1)CCC2	-1.8%[70.6 µM]
COCC1CN(C2CCC2)CC12CCN(Cc1cccc(OC)c1OC)CC2 (stereo not drawn)	-1.7%
CCc1nc2c(c(-c3ccc(Cl)cc3)n1)CN(C(=O)C1CCCC1)CC2	-8.8%
Cc1ccc(Cn2cc(-c3ccncc3)cc2C(=O)N2CCN(C)CC2)cc1	-0.8%
C[C@@H]1CN(C(=O)c2cccc(C#N)c2)C[C@]1(C)O	-1.2%
COCCc1noc(CC2CCOC3(CCN(C(=O)c4ccccn4)CC3)C2)n1 (stereo not drawn)	3.9%
CO[C@H]1C(=O)N(C2CCN(S(=O)(=O)c3c(C)noc3C)CC2)[C@H]1c1ccncc1	-1.9%
Cc1cccc(CN2CCCC3(CCN(C(=O)c4ccc(=O)[nH]c4)C3)C2=O)c1 (stereo not drawn)	8.1%
c1ccc(-c2cnc([C@@H]3COCCN3Cc3cccnc3)[nH]2)cc1	-3.6%[70.6 µM]
COc1cccc(-c2cc(-c3ccccc3)nc3c(C)noc23)c1	0.7%[70.6 µM]
O=C(NCCN1CCCCC1)C1Cn2cccc2C(=O)N1Cc1cccnc1 (stereo not drawn)	-1.5%
CCn1ccc2sc(C)c(C(=O)N3CCCCC3)c2c1=O	-11.3%
COc1cc(-c2ncccc2C(=O)N2CCCC2)cc(OC)c1OC	-0.5%
COC(=O)[C@H]1CCCN1C(=O)[C@@H]1C[C@H](NC(=O)NC(C)C)CN1C(=O)CSC	-8.4%[70.6 µM]
NC(=O)c1csc(S(=O)(=O)N2CCC(CO)(CN3CCCC3)CC2)c1	0.2%
CCN1c2cc(C(=O)NCc3ccccc3OC)ccc2C(=O)N2CCCCC21 (stereo not drawn)	-1.8%
CN(C)CC1(O)CCC2(CCN(C(=O)c3ccc4ccccc4n3)CC2)CC1	7.1%
O=C(c1ccco1)N1CC(Oc2cccc(-c3nc(-c4ccccc4)no3)c2)C1	-0.7%
C#CCN(C)Cc1nc(C2(O)CCN(C(=O)NCC=C)CC2)cs1	5.9%[70.6 µM]
CC(=O)NC[C@H]1CCN(S(=O)(=O)c2ccc(C#N)cc2)C[C@H]1N(C)C	4.6%
CCc1nc2cc(N3CCCC(C(=O)NC4CC4)C3)cnc2nc1CC (stereo not drawn)	-1.5%
Cc1cccc(C(=O)N2CC(=O)N(c3cccc(Cl)c3)CC2C)n1 (stereo not drawn)	u
COc1ccccc1-c1ccnc(-c2nnc(C)n2C2CCCCC2)c1	-2.0%[70.6 µM]
CC(=O)N1CCCC2(C1)CN(C)c1ccc(C(=O)NCCOc3ccccc3)cc12 (stereo not drawn)	0.1%[70.6 µM]
O=C1NCCC[C@@H]1NC(=O)[C@H]1CN(C(=O)c2cccs2)CCN1C(=O)c1cccs1	3.1%
Cc1cc(C(=O)N2CCC(Oc3ccc(C(=O)NC4CCCC4)cc3Cl)CC2)n(C)n1	-15.2%
CN(CC(O)COc1cccc(CNCCc2ccc(F)cc2)c1)C1CCCCC1 (stereo not drawn)	-9.2%
CCN1c2cc(C(=O)Nc3ccc(Cl)c(F)c3)ccc2C(=O)N2CCCCCC21 (stereo not drawn)	0.0%
O=C(C1CC(=O)N(C2CCCCC2)C1)N1CCC2(CC1)NCCc1c2[nH]c2ccccc12 (stereo not drawn)	-2.3%
C1=C(c2nc(-c3ccncc3)cc3c2ccn3Cc2cccnc2)CCOC1	-2.7%[70.6 µM]
O=c1n(-c2ccc(F)cc2F)nc2n1CCN(Cc1cccs1)C2	-0.9%
COc1cc(NC(=O)Cn2c(-c3ccccc3)nc(C)c(CCO)c2=O)cc(OC)c1OC	-3.5%
C[C@]1(CO)C2CC[C@@H](O)[C@@H](CC(=O)NCc3cccs3)[C@]2(C)CC[C@H]1OC(=O)Nc1cccc(F)c1 (stereo partly drawn)	-0.1%
CN1CCC(OC2CCN(C(=O)c3ccc(F)cc3)CC2)CC1	-1.1%
Cc1ccc(NC(=O)N2CCC(Oc3ncccc3C(=O)N(C)C)C2)c(C)c1 (stereo not drawn)	0.3%

# More entries
Molecule	NPR1 antag
Cc1cc(F)ccc1OC1CN(Cc2ccc(C#N)cc2)C1	-15.6%[70.6 µM]
CC(C)N1C(=O)CO[C@H]2CCN(Cc3ccccc3)CC[C@@H]21	u
O=C(NCCn1ccn2nc(-c3ccc(F)cc3)cc2c1=O)c1ccco1	0.3%
O=C1CCN(S(=O)(=O)c2ccccc2)CCCN(C(=O)c2cccc3[nH]ccc23)CCN1	7.4%
COc1cccc(-c2ccc3ncn(-c4ccc(F)cc4F)c(=O)c3n2)c1	6.1%[70.6 µM]
O=C1N(Cc2cccc(F)c2F)CCCC1(O)CN1CCCCC1 (stereo not drawn)	-1.0%
Cc1noc(CN2C[C@H](NC(=O)CNS(C)(=O)=O)[C@@H](C3CC3)C2)n1	-1.5%
O=C(NCCc1ccccn1)C1CCc2sc(C(=O)N3CCCCC3)cc2C1 (stereo not drawn)	-2.6%
N#Cc1cccc(CN2Cc3[nH]cnc3C[C@H]2C(=O)NCc2ccco2)c1	1.0%[70.6 µM]
O=C(CN1CC2CC(C1)[C@H]1CCCC(=O)N1C2)NCc1cc(F)cc(F)c1 (stereo partly drawn)	2.6%
O=C(O)CCc1cc2n(n1)CCN(C(=O)c1ccccc1-n1cccc1)C2	-1.0%
O=C(NC1CC1)C1(CCO)CC12CCOCC2 (stereo not drawn)	0.5%
O=C1CC(c2ccccc2)N(C(=O)CNC(=O)c2c[nH]c3ccccc23)CCCCCN1 (stereo not drawn)	-0.5%
CCCN(CC1CCOC1)C(=O)NC1CCCC1 (stereo not drawn)	-6.7%
Cc1ccc(NC(=O)N2CCC(N3CC4CC(C3)[C@H]3CCCC(=O)N3C4)CC2)cc1F (stereo partly drawn)	0.0%

# Some of the entries so far, as labelled records.
Cc1cc(F)ccc1OC1CN(Cc2ccc(C#N)cc2)C1
  NPR1 antag: -15.6%[70.6 µM]

O=C(CN1CC2CC(C1)[C@H]1CCCC(=O)N1C2)NCc1cc(F)cc(F)c1 (stereo partly drawn)
  NPR1 antag: 2.6%
